Source: PubChem
TRPML1 blocker – human mucolipin-1 channel inhibition | Q9GZU1 | TRPML1-inducible cells, Ca2+ dye fluorescence, FDSS; active compounds read low; inhibition of EC80 agonist-evoked calcium signal | activity change, negative = inhibition, % (test concentration not listed) | actives 0.02% (n = 390,000) | AID 624415; in the data active means activity change below about -50%; inconclusive means about -30% to -50%; inactive means above about -30%;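 note: stimulus is agonist 54-4 at its EC80 concentration; % is set by controls: 0 for no effect and ±100 for the full control effect; compound concentration not given in the record; the text of the record puts the active cut at -80%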
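TRPML1-DL cells, Tet-induced overnight (~16 h, 37 °C) at 1,500 cells/well, were loaded with Ca8 no-wash dye plus quencher for 45-90 min at room temperature. Compounds were pinned during FDSS kinetic reading; agonist 54-4 at EC80 (4 uM final) then added.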
gsp ag – gsp mutant agonism; gsp mutant cells, cAMP HTRF, 30 min; control for the full effect not named in the record; Potency, µM (highest dose often 76.9 µM), without a hit: at the top dose activation (cAMP increase), actives largely listed as activators; actives 0.13% (n = 340,000); active = well fitted activation curve with a large enough effect; inconclusive = small, poorly fitted or top-dose-only effect, or another doubt; inactive = no such curve, though single readings can be large or run the other way; cell line not stated here;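 note: phosphodiesterase inhibitor Ro 20-1724 added with compounds to block cAMP breakdown; potency is the fitted concentration of half-maximal effect; nearly all actives have a fitted effect of over 60% in size; about a fifth of the inactives were tested at one dose only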
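Cells stably selected in G418 were plated at 2000/well, grown 16-24 hr, then given compounds in DMSO with the PDE inhibitor […] (300 uM solution added) for 30 min at 37C; cAMP was read by HTRF.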
Sfp inh – inhibitors of Bacillus subtilis Sfp phosphopantetheinyl transferase | Q9F4F7 | Biochemical Sfp PPTase activity, qHTS | Potency, µM, inactives show max response, negative = inhibition, usual class: inhibitors | actives 3.5% (n = 310,000) | AID 1490; active = well fitted inhibition curve with a large enough effect; inconclusive = small, poorly fitted or top-dose-only effect, or another doubt; inactive = no such curve, though single readings can be large or run the other way;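 note: the enzyme is Sfp with the accession as filed and its product quenches rhodamine fluorescence; potency is the fitted concentration of half-maximal effect; 0% = enzyme reaction without inhibitor and -100% = no enzyme wells; top concentration of the series not given in the record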
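Step 1, compound plus 15 nM Sfp-PPTase, 15 min, room temperature. Step 2, add rhodamine-CoA (5 uM) and BHQ-2-YbbR (12.5 uM). Step 3, read 525/598 nm fluorescence at 0 and 30 min.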
ClpP mod – qHTS Assay for Activators of ClpP; purified B. subtilis ClpP, FRET peptide cleavage, 20 min; Potency, µM (highest dose often 57.5 µM), inactives show at the highest dose activity change, negative = active; actives 1.9% (n = 340,000); AID 651965, 2013; active = well fitted falling curve with a large enough effect; inconclusive = small, poorly fitted or top-dose-only effect; inactive = no such curve, though single readings can be large or run the other way; note: potency is the fitted concentration of half-maximal effect; the source files actives as falling curves though it sought activators and does not explain the sign; nearly all actives have a fitted effect of over 65% in size; many hits overshoot -100%
Target sequence (P80244 whole entry, looked up): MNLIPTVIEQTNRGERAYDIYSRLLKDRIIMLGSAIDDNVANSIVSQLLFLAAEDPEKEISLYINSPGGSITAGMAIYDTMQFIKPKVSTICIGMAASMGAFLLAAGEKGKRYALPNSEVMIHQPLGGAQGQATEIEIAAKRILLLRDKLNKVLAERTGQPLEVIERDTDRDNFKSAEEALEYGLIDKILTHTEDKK
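ClpP 10 microg/mL final, pH 8 Tris/KCl buffer with BSA, glycerol, Tween-20; compound pinned in; FRET-FV substrate; RT 20 min; Ex320/Em430; ΔFRET vs ADEP 5.8 microM, DMSO, no enzyme.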
Menin-MLL FL inh – menin-MLL binding inhibition, fluorescein peptide | Fluorescence polarization, fluorescein-MLL peptide displacement from menin | FP activity change, % at 61.4 µM | 290,000 tested, under 10 active; inconclusive = falling polarisation curve, or a change in total fluorescence; inactive = total fluorescence flat and polarisation flat or rising; no compound was filed as active; the % refers to the polarisation; negative = inhibition;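 note: % of control where 0% means no effect; inhibitors lower the polarisation; unlabelled MLL peptide was the positive control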
gsp antag – antagonists of gsp mutant (McCune-Albright syndrome). gsp-mutant cells, cAMP HTRF, 30 min; control for the full effect not named in the record. Potency, µM (series often up to 76.9 µM), without a hit: top-dose activity change, negative = inhibition, most hits filed as inhibitors. actives 0.4% (n = 340,000). AID 624288; active = falling curve of any shape with a large fitted effect; inconclusive = falling curve, mostly with a smaller effect; inactive = flat or rising curve; cell line not stated here;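 note: intracellular cAMP measured with PDE inhibitor Ro 20-1724 present during compound exposure; potency is the fitted concentration of half-maximal effect; % is set by controls: 0 for no effect and ±100 for the full control effect; nearly all actives have a fitted effect of over 65% in size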
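Measurement of cellular cAMP by homogeneous time-resolved fluorescence following a 30 min compound exposure at 37C. The PDE inhibitor […] was present throughout; the assay buffer was DPBS with 0.05% BSA and 0.005% Tween 20.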
TRPV1 PAM – enhances activation of the human vanilloid receptor TRPV1 | TRPV1-expressing cells, Fluo-8 calcium influx, capsaicin EC20 potentiation; host cell line not named in the record; control for the full effect not named in the record | actives 0.02% (n = 320,000) | AID 540277 | Q8NER1 | potentiation, % at 8.33 µM; active means potentiation above 80%; inconclusive means 30% to 80%; inactive means below 30%; note: 0% is about no effect
Target sequence (Q8NER1 whole entry, looked up): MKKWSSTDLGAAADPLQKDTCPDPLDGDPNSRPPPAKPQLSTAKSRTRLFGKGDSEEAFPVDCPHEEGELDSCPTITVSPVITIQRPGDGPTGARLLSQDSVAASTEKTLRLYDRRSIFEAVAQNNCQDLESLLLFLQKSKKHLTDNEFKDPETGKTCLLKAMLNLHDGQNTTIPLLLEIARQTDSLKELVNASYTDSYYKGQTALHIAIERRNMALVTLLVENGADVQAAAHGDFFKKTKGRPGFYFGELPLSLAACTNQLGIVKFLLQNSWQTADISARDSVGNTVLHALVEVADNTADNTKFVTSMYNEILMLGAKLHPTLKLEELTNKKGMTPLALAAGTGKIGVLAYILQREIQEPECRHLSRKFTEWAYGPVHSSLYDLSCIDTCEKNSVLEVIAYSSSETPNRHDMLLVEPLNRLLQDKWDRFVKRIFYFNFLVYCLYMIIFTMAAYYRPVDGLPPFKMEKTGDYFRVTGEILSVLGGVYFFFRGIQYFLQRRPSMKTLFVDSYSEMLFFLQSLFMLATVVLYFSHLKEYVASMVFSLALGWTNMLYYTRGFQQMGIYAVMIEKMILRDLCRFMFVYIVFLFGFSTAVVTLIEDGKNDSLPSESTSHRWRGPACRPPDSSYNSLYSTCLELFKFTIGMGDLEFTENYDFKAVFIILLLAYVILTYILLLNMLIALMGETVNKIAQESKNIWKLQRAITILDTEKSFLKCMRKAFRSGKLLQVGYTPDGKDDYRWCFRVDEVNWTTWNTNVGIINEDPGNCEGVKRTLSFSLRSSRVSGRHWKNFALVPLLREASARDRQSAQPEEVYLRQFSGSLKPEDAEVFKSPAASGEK
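TRPV1-expressing cells were cultured overnight at 35.5C and loaded with Fluo-8 calcium dye for 40 to 90 min at room temperature. After a 10 s baseline, compound was added and calcium influx was read kinetically for 3 min (ex 480/em 520 nm).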
* = called active by the depositor; ? = inconclusive; nt = no result given; & = joins results of further samples; [ ] = remark or other dose.

SMILES | TRPML1 blocker | gsp ag | Sfp inh | ClpP mod | Menin-MLL FL inh | gsp antag | TRPV1 PAM
O=[N+]([O-])c1ccc(Sc2cc[n+]([O-])c3ccccc23)c([N+](=O)[O-])c1 | 16 | 0%[15.4 µM] | 3% | nt | 4.7 | -3% | 10
COc1ccc(NS(=O)(=O)c2ccc(C)c(C(=O)NC3CCN(Cc4ccccc4)CC3)c2)cc1 | 22 | 32% | 3% | -1.3% | -2.9 | 3% | 4
COc1ccc(Cn2nnnc2C(c2ccc(N(C)C)cc2)N2CCC(C(N)=O)CC2)cc1 (configuration not stated) | -1 | -3%[15.4 µM] | 9% | nt | -3.4 | -11% | 2
O=S(=O)(c1ccc(Cl)c(C(F)(F)F)c1)N1CCN(CC(O)COc2ccccc2F)CC1 (configuration not stated) | -5 | -19%[15.4 µM] | -25% | nt | 5.5 | nt | -10
CCC(C)(C)NC(=O)C(c1ccc(C)cc1)N(Cc1cccs1)C(=O)c1ccc2c(c1)OCCO2 (configuration not stated) | 11 | 2% | 1% | 0.7% | -0.4 | -10% | -11
CCCC(=O)Nc1cc(-c2nn(C)c(=O)c3ccccc23)ccc1OC | -1 | 20% | 22% | -5.6% | -1.1 | -6% | 3
Cc1n[nH]c(=O)nc1NCc1ccccc1 | 6 | -6% | 4% | -2.3% | 3.1 | 7% | 3
CCCNC(=O)OC[C@H]1O[C@H](CCO/N=C(\C)CCN2CCc3nc(-c4ccccc4)c(-c4ccccc4)cc3C2)C=C[C@@H]1Oc1ccc(OC)cc1 | nt | nt | -8% | nt | 5.6 | nt | 8
CCN1CCN(c2nc(Nc3ccc(NC(C)=O)cc3)nc(Nc3ccc(NC(C)=O)cc3)n2)CC1 | -14 | 3%[15.4 µM] | 11% | nt | 4.6 | -4% | 0
Cc1ccc(-c2ccc(=O)n(CC(=O)NCCCN3CCCCC3C)n2)cc1 (configuration not stated) | -4 | -27% | 1% | ? | 3.1 | 8% | -11
CCOC(=O)c1cccc(NC(=O)CCNS(=O)(=O)c2cccc3nonc23)c1 | 0&14 | -3%[15.4 µM] | 3% | -5.7% | 3.4 | -3% | 1
Cc1cccc(Cc2nnc(CCC(=O)NCc3cn4ccccc4n3)o2)c1 | -14 | 29% | 6% | nt | -2.2 | 0% | -19
Cn1c(N)c(C(=O)COC(=O)/C=C/c2ccc(F)cc2)c(=O)n(C)c1=O | 10 | 21% | nt | 1.3% | nt | -3% | -19
Cc1cccc(CSc2ccc3nnc(-c4cccnc4)n3n2)c1 | 2 | 17%[15.4 µM] | 1% | -0.3% | -0.6 | 2% | -6
COc1ccc(N(CC(=O)Nc2c(C)n(C)n(-c3ccccc3)c2=O)S(=O)(=O)c2ccc(C)cc2)cc1 | 6 | 28% | 23% | nt | -1.7 | 6% | 2
CCCC(=O)NCc1nc2ccccc2n1CC(=O)c1ccccc1 | -10 | -2% | 8% | 0.0% | -16 | 7% | -12
CCCc1nc(SCC(=O)N2CCc3ccccc32)c2c(=O)n(C)c(=O)n(C)c2n1 | nt | nt | 16% | nt | 13 | nt | 11
O=C(O)c1ccc([N+](=O)[O-])cc1-c1cc([N+](=O)[O-])ccc1C(=O)O | 13 | -33% | nt | nt | nt | 1% | nt
CC(=O)Nc1ccc(S(=O)(=O)N/N=C/c2ccc(C)o2)cc1 | -1 | ? | 10% | -1.3% | 3.0 | 5% | 16
CCN(c1ccc(OC)cc1)S(=O)(=O)c1ccc2c(c1)CCN2C(=O)CCC(=O)O | -10 | -11% | 11% | -2.0% | -0.2 | -24% | -3
CCOC(=O)C(C(=O)OCC)C(C(=O)OCC)N1CCOCC1 (configuration not stated) | 0 | -18% | 22µM* | -19% | -2.9 | -6% | 23
CCOc1ccccc1C(=O)N1CCCCC1C (configuration not stated) | 1 | -28% | 24% | -1.6% | -0.6 | -5% | -8
CCOC(=O)CN1CC(C)(C)N(CC(=O)OCC)CC1(C)C | 15 | 8% | nt | -2.2% | nt | -1% | nt
COc1cc(/C=N/Nc2ncc(C(F)(F)F)cc2Cl)cc(OC)c1OC | -17 | 0% | 3% | -20% | -1.7 | -16% | 0
COc1ccc(OC)c(NC(=O)c2nc3ccccc3s2)c1 | -6 | -1%[15.4 µM] | 10% | nt | -9.5 | -10% | -5
CCOC(=O)C1CCCN(S(=O)(=O)c2c(C)c(C)cc(C)c2C)C1 (configuration not stated) | 1 | -2% | -7% | -0.6% | 0.7 | 7.1µM* | -16
COC(=O)C1CCN(C(=O)C23CCC(C)(C(=O)O2)C3(C)C)CC1 (configuration not stated) | -20 | -8% | -1% | -0.7% | -2.5 | 4% | 25
CCCCN(C(=O)C1CCCC1)c1c(N)n(CCC)c(=O)[nH]c1=O | 7 | -9% | nt | -8.4% | nt | 3% | 6
Cc1ccc(C)c(/C(O)=C2/C(=O)C(=O)N(CCN3CCOCC3)C2c2ccc(C)o2)c1 (configuration not stated) | -7 | -19% | -18% | -3.2% | 4.5 | -10% | -4
CCC1CC(C)(C(=O)Nc2ccc(S(N)(=O)=O)cc2)OC1=O (configuration not stated) | 1 | 2% | -7% | -0.1% | 0.0 | 8% | -19
CC(C)Oc1ccc(S(=O)(=O)N2CCOCC2)cc1NC(=O)c1cc([N+](=O)[O-])ccc1N1CCOCC1 | 15 | ? | nt | -1.4% | nt | 9% | -4
CCN1C(=NCCc2cccnc2)N[C@@H](c2ccccc2)[C@H](C(=O)OC)[C@H]1C | 1 | nt | 16%&-7% | 4.6% | 0.1&1.1 | 9% | -6&7
COc1ccccc1NC(=O)CSc1sc2c(O)cc(=O)[nH]c2c1C#N | 0 | -17%[15.4 µM] | 40µM* | nt | 20 | -10% | -12
COc1cc2ccccc2cc1C(=O)N(CCN(C)C)c1nc2c(C)cccc2s1 | 10 | ? | ? | -7.1% | -2.1 | 17% | 1
CN(C(=O)COC(=O)c1cccc(S(=O)(=O)N2CCOCC2)c1)C1CCS(=O)(=O)C1 (configuration not stated) | -10 | -11% | nt | -2.1% | nt | 11% | 4
Cc1ccccc1-c1cc(C(=O)NCc2ccc(OC(F)(F)F)cc2)n(CC2CC(c3cccnc3)=NO2)n1 (configuration not stated) | 29 | -3% | nt | -4.3% | nt | -13% | nt
COc1ccccc1NS(=O)(=O)c1cccc(C(=O)OCC(=O)NC2CC2)c1 | 7 | 5%[15.4 µM] | nt | nt | nt | 3% | 6
O=[N+]([O-])c1ccccc1CS(=O)(=O)c1ccccc1 | -10 | nt | nt | -1.3% | nt | -2% | -5
CCOc1ccc(N(CC(=O)N/N=C/c2cccnc2)S(C)(=O)=O)cc1 | 4 | -12% | 10% | nt | -0.1 | 3% | 4
COc1ccccc1NC(=O)Cc1csc(N)n1 | -7 | 5% | -3% | -1.0% | 0.6 | 11% | 14
COc1cccc(C(=O)Nc2ccc3c(c2)OCO3)c1OC | -12 | 28%[15.4 µM] | 11% | nt | 0.2 | 1% | -15
CC(=O)Nc1ccc(Oc2cc(C#N)c(C#N)cc2N2CCCCCC2)cc1 | 19 | -14% | -4% | -2.5% | 6.8 | ? | ?
COc1ccc(C(C[N+](=O)[O-])c2c(C)[nH]c3ccccc23)cc1OC (configuration not stated) | -6 | -46%[inhibitor] | -7% | -7.4% | -1.3 | 4% | -1
Cn1c(=O)[nH]c(=O)c2c1nc1n2CC(O)CN1c1ccccc1 (configuration not stated) | -3 | 18% | 2% | nt | 2.1 | 4% | ?
Cc1nc(NC(=O)c2cnccn2)ccc1Br | -10 | 20% | -2% | -2.1% | -6.0 | 5% | -14
Cc1ccc(S(=O)(=O)N(C)C)cc1-n1c(SCC(=O)Nc2ccc(F)c(F)c2F)nc2ccccc2c1=O | -3 | -28% | -4% | -2.0% | 2.9 | -5% | 16
Nc1nc(SCc2c(F)cccc2Cl)[nH]c(=O)c1-c1ccccc1 | 30 | -1% | 3% | -1.9% | -0.4 | 9% | 7
CCCCCc1c(C)c(C#N)c2nc3ccccc3n2c1-n1ccnc1C | -3 | -46% | 13% | -3.1% | -1.1 | 3% | -5

Copied from the entries so far (3 entries):
SMILES | TRPML1 blocker | gsp ag | Sfp inh | ClpP mod | Menin-MLL FL inh | gsp antag | TRPV1 PAM
COc1ccccc1NS(=O)(=O)c1cccc(C(=O)OCC(=O)NC2CC2)c1 | 7 | 5%[15.4 µM] | nt | nt | nt | 3% | 6
O=[N+]([O-])c1ccccc1CS(=O)(=O)c1ccccc1 | -10 | nt | nt | -1.3% | nt | -2% | -5
CCOc1ccc(N(CC(=O)N/N=C/c2cccnc2)S(C)(=O)=O)cc1 | 4 | -12% | 10% | nt | -0.1 | 3% | 4

Entries from the list above that have a CF3 group:
SMILES | TRPML1 blocker | gsp ag | Sfp inh | ClpP mod | Menin-MLL FL inh | gsp antag | TRPV1 PAM
O=S(=O)(c1ccc(Cl)c(C(F)(F)F)c1)N1CCN(CC(O)COc2ccccc2F)CC1 (configuration not stated) | -5 | -19%[15.4 µM] | -25% | nt | 5.5 | nt | -10
COc1cc(/C=N/Nc2ncc(C(F)(F)F)cc2Cl)cc(OC)c1OC | -17 | 0% | 3% | -20% | -1.7 | -16% | 0
Cc1ccccc1-c1cc(C(=O)NCc2ccc(OC(F)(F)F)cc2)n(CC2CC(c3cccnc3)=NO2)n1 (configuration not stated) | 29 | -3% | nt | -4.3% | nt | -13% | nt

Next section:
SMILES | TRPML1 blocker | gsp ag | Sfp inh | ClpP mod | Menin-MLL FL inh | gsp antag | TRPV1 PAM
O=S(=O)(NC1CCCC1)c1ccc(S(=O)(=O)N2CCc3ccccc32)cc1 | 22 | -16% | 9% | 0.9% | -0.5 | -13% | -9
CN(C)C(=S)Nc1ccc2ccccc2c1 | 60 | 13% | -7% | -10% | 2.9 | 8% | 13
COc1ccc(Cl)cc1C(=O)Nc1ccc(N(C)C(C)=O)cc1 | 5 | -25% | 3% | 1.5% | -1.3 | -8% | -3
CN(C)Cc1cn(CCC(=O)O)c2ccccc12 | 11 | -9% | nt | -2.5% | nt | 8% | nt
Cc1nn(C(C)C(=O)N2CCOCC2)c(=O)c2nn(-c3ccccc3)c(C)c12 (configuration not stated) | 17 | -8% | 10% | -3.3% | nt | -7% | -1
